Source: PubChem BioAssay (National Center for Advancing Translational Sciences (NCATS))
TRPV1 PAM – enhances activation of the human vanilloid receptor TRPV1. Q8NER1. TRPV1-expressing cells, Fluo-8 calcium influx, capsaicin EC20 potentiation; host cell line not named in the record; control for the full effect not named in the record. potentiation, % at 8.33 µM. hit rate 0.02% among 320,000; active means potentiation above 80%; inconclusive means 30% to 80%; inactive means below 30%; further: 0% is about no effect
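TRPV1-expressing cells were cultured overnight at 35.5C and loaded with Fluo-8 calcium dye for 40 to 90 min at room temperature. After a 10 s baseline, compound was added and calcium influx was read kinetically for 3 min (ex 480/em 520 nm).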
CtBP-E1A blk – inhibitors of CtBP/E1A interaction; activity change, % (no concentration beside the values); AID 651724; AlphaScreen GST-E1A/His-CtBP binding, 1536-well; stronger effect = lower value; control for the full effect not named in the record; hit rate 0.49% among 340,000; in the data active means activity change below about -65%; inconclusive means about -30% to -65%; inactive means above about -30%; further: on the % scale 0 is the no-effect control and ±100 the full control effect; compound concentration not given in the record
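GST-E1A and His-tagged CtBP (125 nM each as 5X stock) were preincubated with pin-transferred compound for 2 h at 37 °C in the dark, then glutathione donor and nickel acceptor beads were added for 1 h before AlphaScreen reading.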
D2 PAM – potentiates the human D2 dopamine receptor allosterically; P14416; DiscoveRx D2 beta-arrestin cells, luminescence, 90 min; 100% = 57 uM dopamine signal; potentiation, % (test concentration not listed); hit rate 0.23% among 360,000; active = potentiation of 50% or more; inconclusive = 30% to 50%; inactive = 30% or less;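 further: compound concentration not given in the record; tested on top of an EC20 dose of dopamine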
Target sequence (P14416 whole entry, looked up): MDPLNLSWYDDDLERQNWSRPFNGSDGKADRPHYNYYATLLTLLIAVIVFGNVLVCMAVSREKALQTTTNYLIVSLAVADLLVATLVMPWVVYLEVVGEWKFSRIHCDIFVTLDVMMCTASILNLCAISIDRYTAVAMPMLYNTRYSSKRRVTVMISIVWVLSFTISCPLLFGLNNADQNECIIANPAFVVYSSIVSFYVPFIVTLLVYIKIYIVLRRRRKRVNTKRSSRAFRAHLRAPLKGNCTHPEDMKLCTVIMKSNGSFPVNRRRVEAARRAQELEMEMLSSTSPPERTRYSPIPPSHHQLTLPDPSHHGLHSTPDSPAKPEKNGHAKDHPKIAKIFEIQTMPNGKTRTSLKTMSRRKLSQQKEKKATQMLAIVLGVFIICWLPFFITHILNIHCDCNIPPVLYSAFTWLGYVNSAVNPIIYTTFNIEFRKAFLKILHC
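D2 cells co-treated with compound plus 50 nM dopamine (EC20) for 90 min at 37 deg C to detect potentiation. Beta-arrestin recruitment was read as enzyme-fragment luminescence after 1 h at ambient temperature. Full response was set by 57 uM dopamine.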
Six1-Eya2 inh – inhibitors of human Six1/Eya2 interaction; hit rate 0.56% among 360,000; activity change, % (concentration not given with the values); Q15475+O00167; AlphaScreen GST-Six1/His-Eya2 binding, biochemical; stronger effect = lower value; control for the full effect not named in the record; in the data active = activity change below about -65%; inconclusive = about -30% to -65%; inactive = above about -30%; further: on the % scale 0 is the no-effect control and ±100 the full control effect
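Homogeneous AlphaScreen proximity assay pairing GST-Six1 with His-tagged Eya2 (added as 5X mix: 250 nM and 500 nM) in 50 mM Tris pH 8.0, 300 mM NaCl, 1 mM TCEP. Glutathione donor and nickel acceptor beads; 1 h, 37 °C, dark.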
TRPML1 ag – agonists of human TRPML1 channel | TRPML1-expressing cells, Ca2+ dye fluorescence, FDSS; host cell line not named in the record; reference of the full effect not given here | activation, % (no concentration beside the values) | hit rate 0.12% among 410,000; in the data active = activation above about 50%; inconclusive = about 30% to 50%; inactive = below about 30%; further: 0% is about no effect; the text of the record puts the active cut at 80%
Target sequence (Q9GZU1 whole entry, looked up): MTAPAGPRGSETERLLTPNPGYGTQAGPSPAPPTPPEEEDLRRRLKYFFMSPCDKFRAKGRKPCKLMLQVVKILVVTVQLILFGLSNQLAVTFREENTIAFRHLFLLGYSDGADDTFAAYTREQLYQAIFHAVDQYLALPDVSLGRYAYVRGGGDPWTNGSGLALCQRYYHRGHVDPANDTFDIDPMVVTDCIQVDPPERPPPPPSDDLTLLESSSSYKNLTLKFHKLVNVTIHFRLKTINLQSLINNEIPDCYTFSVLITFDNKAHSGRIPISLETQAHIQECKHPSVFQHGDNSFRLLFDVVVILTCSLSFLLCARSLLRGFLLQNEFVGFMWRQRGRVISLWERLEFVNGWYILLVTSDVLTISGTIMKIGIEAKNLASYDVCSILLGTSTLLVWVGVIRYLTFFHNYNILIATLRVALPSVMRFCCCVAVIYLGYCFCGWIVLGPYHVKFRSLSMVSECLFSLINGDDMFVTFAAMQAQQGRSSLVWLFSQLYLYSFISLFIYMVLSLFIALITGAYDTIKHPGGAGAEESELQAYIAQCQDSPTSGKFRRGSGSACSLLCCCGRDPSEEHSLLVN
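In this qHTS format, compounds were pin-transferred onto Ca8-dye-loaded TRPML1-DL cells induced with Tet overnight, and intracellular Ca2+ fluorescence was recorded kinetically for 110 s after a 10 s baseline. A subsequent 4uM final 54-4 (EC80) addition followed by a second 110 s read served as the antagonist phase.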
TRPML1 inh – blocks the human TRPML1 channel | TRPML1-inducible cells, Ca2+ dye fluorescence, FDSS; stronger effect = lower value; inhibition of EC80 agonist-evoked calcium signal | activity change, negative = inhibition, % (concentration not given with the values) | hit rate 0.02% among 390,000 | AID 624415; in the data active means activity change below about -50%; inconclusive means about -30% to -50%; inactive means above about -30%;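 further: stimulus is agonist 54-4 at its EC80 concentration; on the % scale 0 is the no-effect control and ±100 the full control effect; compound concentration not given in the record; the text of the record puts the active cut at -80%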
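TRPML1-DL cells, Tet-induced overnight (~16 h, 37 °C) at 1,500 cells/well, were loaded with Ca8 no-wash dye plus quencher for 45-90 min at room temperature. Compounds were pinned during FDSS kinetic reading; agonist 54-4 at EC80 (4 uM final) then added.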
An asterisk follows results filed as active; ? = inconclusive; · = not tested or not shown; & = joins results of further samples.

Below each SMILES: TRPV1 PAM	CtBP-E1A blk	D2 PAM	Six1-Eya2 inh	TRPML1 ag	TRPML1 inh
- Cc1oc(-c2cccc(Cl)c2)nc1CN1CCC(C(=O)NCc2cccnc2)CC1
  3	-1	-33	-2	0.1	17
- Cc1cc(C)n(-c2ccc(C(=O)Nc3ccc(S(=O)(=O)N(C)C)cc3)cc2)n1
  -62	0	-4	-20	4.8	14
- O=C(/C=C/c1ccc(Cl)cc1)NCc1ccncc1
  -7	-19	-14	4	1.4	3
- CC(C)Oc1ccc(CN2CCC2(C)C(=O)Nc2cccc(Oc3ccccc3)c2)cc1 (stereo unspecified)
  ·	18	-6	11	1.4	·
- COC(=O)COc1ccc(S(=O)(=O)N2CCN(c3ccccc3)CC2)cc1
  9	0	-1	2	-0.8	-8
- COc1ccc(/C(C)=N/NC(=S)NCCc2ccccc2)c(O)c1
  7	?	-18	?	1.3	25
- CC(C)C(CCNC(=O)CC(Cc1ccccc1)c1ccco1)c1ccco1 (stereo unspecified)
  -8	-1	-5	-2	0.0	-1
- Cc1ccc(CSC2=NCCN2C(=O)C(C)Oc2ccccc2)cc1 (stereo unspecified)
  3	0	2	23	0.8	7
- Cc1oc2c(c1C(=O)NCc1ccccc1)CCCC2
  0	10	-14	-1	1.1	-4
- COc1cc(/C=N/NC(=O)C2C3CCCCC32C)cc(Br)c1O (stereo unspecified)
  -19	3	-2	-12	0.0	-12
- O=C(O)c1cccc(N(CCO)CCO)c1
  11	-5	-7	4	-0.1	2
- Cc1cc(C(=O)CSc2nnc(N)s2)c(C)n1Cc1cccs1
  -8	-10	6	-19	2.1	-3
- CCc1cc2c(C)ccc(C)c2nc1SCC(=O)Nc1c[nH]c(=O)[nH]c1=O
  1	1	-5	9	0.3	8
- COc1ccc(CNCC(O)(c2ccccc2)c2ccc(F)cc2)cc1 (stereo unspecified)
  -7	12	-8	0	0.3	2
- CC(C)Cn1c(N)c(C(=O)CSc2nccn2C)c(=O)n(C)c1=O
  -3	-8	9	7	0.8	16
- O=S(=O)(c1ccccc1)N1N=C(c2cccs2)CC1c1cccc(O)c1 (stereo unspecified)
  25	-1	-14	1	1.0	16
- CCSc1nnc2c(n1)OC1(CCCC1)Nc1ccccc1-2
  ·	-1	1	-16	-1.5	-9
- O=C(NCCC(=O)N1CCN(c2ncccn2)CC1)c1ccccc1
  0	1	-7	-1	-1.1	4
- O=C(Nc1ccc(-n2cnnn2)cc1)c1cc(S(=O)(=O)N2CCCC2)ccc1Cl
  0	-9	-8	-2	0.6	1
- COn1c(-c2ccccc2)nc2c1CCc1c-2no[n+]1[O-]
  2	8	0	6	0.4	0
- COc1ccc(CC(=O)NC(C)c2nnc(SCC(=O)Nc3cc(C)ccc3OC)n2C)cc1 (stereo unspecified)
  7	-2	-4	3	0.4	3
- O=C(Nc1ccc2c(c1)Cc1ccccc1-2)c1ccco1
  -2	0	-3	0	0.6	6
- Cc1ccc(S(=O)(=O)N2C[C@H]3C(=O)C[C@@H](c4ccc(Cl)cc4)N(S(=O)(=O)c4ccccc4C)[C@H]3C[C@H]2c2cccc(Cl)c2)cc1
  ·	-1	0	6	1.4	2
- CCOC(=O)C1=C(N)OC2=C(C(=O)CC(C)(C)C2)C1c1cccs1 (stereo unspecified)
  13	-1	-10	-8	0.9	-13
- CCOc1ccccc1NC(=O)C1CC2CCCC(C1)C2=O (stereo unspecified)
  10	4	-6	1	-0.7	5
- O=C(NCC(c1ccco1)N1CCCCC1)c1cccc(NS(=O)(=O)c2ccc(Br)cc2)c1 (stereo unspecified)
  2	0	-25	-7	-0.6	-10
- O=C(O)CSc1nc2ccccc2s1
  -1	·	-15	1	-0.5	2
- COC(=O)c1c(NC(=O)C2CCC2)sc(C(=O)N(C)C)c1C
  7	6	8	4	3.8	5
- O=C(C1CC1)N1CCN=C1SCc1cccc(C(F)(F)F)c1
  -11	8	-6	12	3.5	-5
- O=C(COC(=O)c1ccc(F)cc1F)Nc1ccc2c(c1)OCO2
  ·	-17	-16	0	-0.5	-6

Quoted at random: 2 records from the list.
Below each SMILES: TRPV1 PAM	CtBP-E1A blk	D2 PAM	Six1-Eya2 inh	TRPML1 ag	TRPML1 inh
- COc1ccc(CNCC(O)(c2ccccc2)c2ccc(F)cc2)cc1 (stereo unspecified)
  -7	12	-8	0	0.3	2
- CC(C)C(CCNC(=O)CC(Cc1ccccc1)c1ccco1)c1ccco1 (stereo unspecified)
  -8	-1	-5	-2	0.0	-1

Other structures follow:
Below each SMILES: TRPV1 PAM	CtBP-E1A blk	D2 PAM	Six1-Eya2 inh	TRPML1 ag	TRPML1 inh
- Cc1cc(-n2nc(C)cc2C)n2nc(C)c(-c3ccccc3)c2n1
  -7	-3	-6	0	0.7	-3
- O=C(OC(C(=O)NC1CCCC1)c1ccc(F)cc1)c1ccno1 (stereo unspecified)
  -1	-2	-13	4	0.6	6
- CCN(CC)S(=O)(=O)c1ccc(Cl)c(C(=O)Nc2ccc(Cl)cc2[N+](=O)[O-])c1
  -1	-13	63*	?	1.5	5
- C[N+](C)(C)CCN1CCc2ccccc21
  ·	-2	·	4	0.4	·
- CN(Cc1ccccc1)C(=O)c1nc[nH]c1C(=O)N1CCN(c2ccccc2)CC1
  -4	5	-10	1	-0.7	1
- CCC(C)NC(C(=O)Nc1ccc(Cl)c([N+](=O)[O-])c1)c1ccccc1 (stereo unspecified)
  -9	-8	-11	-5	2.9	7
- O=C(CN(Cc1ccco1)S(=O)(=O)c1cccs1)Nc1ccccc1C(F)(F)F
  8	0	-4	16	2.0	11
- COc1ccc(-n2c(SC3CCOC3=O)nc3ccccc3c2=O)cc1Cl (stereo unspecified)
  6	·	-3	-15	1.1	2
- CC(OC(=O)COc1ccccc1)C(=O)NC1CCCC1 (stereo unspecified)
  -25	7	0	-6	2.6	2
- COc1ccc(C(=O)OCC(=O)c2ccc3c(c2)NC(=O)CO3)cc1S(=O)(=O)N1CCOCC1
  ·	3	0	-12	-0.4	-4
- Cc1ccc(S(=O)(=O)N2[C@@H](c3ccc(Cl)cc3)C(C(=O)O)=CC[C@H]2c2cccs2)cc1
  -7	7	-9	9	-0.6	-5
- CN1C=CC=C/C1=C1\SC(=S)N(N)C1=O
  -4	1	-11	0	-1.3	-1
- COc1ccc2nc(SCC(=O)Nc3ccc4c(c3)CCC4)[nH]c2c1
  -11	-13	-6	-3	1.9	-8
- CC(=O)Nc1ccc(S(=O)(=O)NCC(=O)OCC(=O)c2cc(C)n(-c3ccc4c(c3)OCO4)c2C)cc1
  0	-11	-6	-5	0.2	-13
- CCOc1ccc(Nc2nc(CC(=O)OC)cc(=O)[nH]2)cc1
  1	7	-1	2	-0.7	8
- c1ccc(-c2ccc(OCCOCCn3cncn3)cc2)cc1
  -25	6	6	4	-0.2	10
- C=CCNc1nc2c3ccccc3n(C(C)=O)c2s1
  6	-6	29	-3	-0.3	1
- CC(C)(C)S(=O)(=O)N1Cc2ccc(CO)cc2[C@H]1CCO
  ·	0	·	0	-0.3	-14
- Cc1cc(S(=O)(=O)NCc2ccccn2)c(Cl)cc1Cl
  10	9	-8	-3	-0.5	-4
- COCCN(Cc1ccccc1)C(=O)C1CCN(S(=O)(=O)c2ccc(OC)c(OC)c2)CC1
  -2	-9	-13	4	0.0	9
- Cc1ccc(O)c(-c2cc(-c3ccccc3[N+](=O)[O-])[nH]n2)c1
  7	-4	-14	-13	1.6	45
- O=C(NCc1ccccc1Cl)c1ccc(S(=O)(=O)Nc2cccc(C(F)(F)F)c2)cc1
  -1	11	-8	10	6.5	5
- CCC(C)Sc1nnc(CSc2nc3nc(C)cc(C)n3n2)o1 (stereo unspecified)
  -9	7	-5	-2	1.4	-10
- Cc1nnc(SCC(=O)NC2CCCc3c2cnn3-c2ccccc2F)o1 (stereo unspecified)
  0	5	-3	3	0.0	42
- CC(NC(=O)c1ccccc1Br)c1nnc(SCc2ccc([N+](=O)[O-])cc2)n1C (stereo unspecified)
  -1	1	-1	5	0.1	-16
- O=C(O)CCCN1C(=O)c2cccc3cccc(c23)C1=O
  -15	0	-2	4	1.5	-11
- C=CCn1c(SCCC(=O)O)nnc1-c1cccs1
  -36	4	-14	8	0.4	1
- CSc1ccc(S(=O)(=O)N2CCC(C(=O)NCCCn3ccnc3)CC2)cc1
  0	4	-4	6	-0.1	25
- Cc1nn2c(-c3ccncc3)ccnc2c1Br
  16	-15	-6	-9	-0.5	-4
- O=C(Nc1ccc(C(=O)N2CCCC2)cc1)C1CC1
  ·	6	·	10	-0.7	-7

3 entries already listed, ordered by SMILES length, largest number first:
Below each SMILES: TRPV1 PAM	CtBP-E1A blk	D2 PAM	Six1-Eya2 inh	TRPML1 ag	TRPML1 inh
- O=C(NCc1ccccc1Cl)c1ccc(S(=O)(=O)Nc2cccc(C(F)(F)F)c2)cc1
  -1	11	-8	10	6.5	5
- COc1ccc2nc(SCC(=O)Nc3ccc4c(c3)CCC4)[nH]c2c1
  -11	-13	-6	-3	1.9	-8
- O=C(O)CCCN1C(=O)c2cccc3cccc(c23)C1=O
  -15	0	-2	4	1.5	-11

Additional results follow.
Below each SMILES: TRPV1 PAM	CtBP-E1A blk	D2 PAM	Six1-Eya2 inh	TRPML1 ag	TRPML1 inh
- CCC1(C)Cc2c(sc3nc(NN)n(C)c(=O)c23)CO1 (stereo unspecified)
  -19	?	-9	?	0.0	11
- Cc1ccc(NC(=O)N2CCC(c3ccccc3)C2)cc1C (stereo unspecified)
  -5	8	-9	-1	-0.2&1.9	-13&-4
- COc1ccc(CCC(=O)OCC(=O)NCc2ccc3c(c2)OCO3)cc1
  -13	6	0	1	0.6	3
- COCCNC(=O)CCCn1c(=O)c2cc(OC)c(OC)cc2n(CC(=O)Nc2ccc(C)c(F)c2)c1=O
  ?	·	10	2	2.7	36
- Cc1cc(C)c(NC(=O)COC(=O)c2ccncc2)c(C)c1
  ·	5	2	5	-0.4	-1
- COc1ccccc1NC(=O)c1ccc(C)s1
  -25	3	-27	9	-0.4	18
- Cc1nc(-c2ccccc2)sc1C(=O)Nc1ccc(S(N)(=O)=O)cc1
  -14	4	10	-1	0.1	10
- COc1ccc(NC(C)=O)cc1NC(=O)CSc1nnc(-c2ccccn2)n1C
  -4	-2	-2	-7	-0.2	2
- N#C/C(=C\c1ccncc1)c1ccc(NC(N)=O)cc1
  1	-23	-16	0	0.5	0
- Cc1cc(=O)[nH]c(NCc2ccc(Cl)cc2)n1
  -20	1	0	-1	0.1	7
- COCCNC(=S)NNC(=O)c1cc(-c2cccnc2)nc2ccccc12
  4	-5	-42	-7	-0.1	11
- COc1cccc(NS(=O)(=O)c2cc3c(cc2C)N(C)CCO3)c1
  5	-3	-4	-12	-0.4	17
- CCN(CCO)c1ccc(N=Nc2cc(C)[nH]n2)cc1
  7	-2	-5	1	-0.4	25
- Cc1ccc(NC(=O)Nc2c(C)n(C)n(-c3ccccc3)c2=O)cc1
  10	6	-3	7	0.9	38
- CC1(C)CC(NS(=O)(=O)c2ccc(S(=O)(=O)N3CCOCC3)cc2)CCO1 (stereo unspecified)
  7	7	2	4	0.2	-1
- CCOc1cc(Br)c(COc2ccc(C)nc2[N+](=O)[O-])cc1OCC
  12	-7	0	-19	1.4	-10
- C=CCn1c(SCC(=O)NCC2CCCO2)nc2sc(C)c(C)c2c1=O (stereo unspecified)
  -28	0	-6	3	0.8	7
